Compound activity (PubChem)
Mtb growth = M. tuberculosis H37Rv growth inhibitors, H37Rv strain (AID 1626) | 220,000 compounds, 0.95% hits | inhibition, % at 10 µM; hits with a dose series show IC50 in µM | M. tuberculosis H37Rv growth inhibition; higher % means a stronger effect;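 active = confirmed in a dose series; inconclusive = inhibition above 80% but not taken into the dose series; inactive = below 80% or under 30% at every dose of the series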;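 note: bacteria incubated seven days before Alamar blue readout; 0% = bacteria only wells and 100% = bacteria with antibiotic wells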
Arbovirus inh = arbovirus infection inhibition. 200,000 compounds, 0.37% hits. arbovirus infection cell-based antiviral screen. inhibition, % at 10 µM;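 active = inhibition from about 30%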;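 note: bluetongue infection of BSR cells; cell survival read as ATP light after 72 h; 0% = infected wells without compound and 100% = uninfected wells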
RecA splice inh = Mtb RecA intein splicing inhibition; P9WHJ3; cell-free RecA intein splicing, fluorescence; inhibition, %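 (about 9 µM by stock and volumes)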; 290,000 compounds, 0.75% hits; in the data active = inhibition above about 30%; inconclusive = no clear call, values can overlap the other calls;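 note: 0% = vehicle wells and 100% = reference inhibitor control wells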
Target sequence (P9WHJ3 whole entry, looked up, canonical isoform): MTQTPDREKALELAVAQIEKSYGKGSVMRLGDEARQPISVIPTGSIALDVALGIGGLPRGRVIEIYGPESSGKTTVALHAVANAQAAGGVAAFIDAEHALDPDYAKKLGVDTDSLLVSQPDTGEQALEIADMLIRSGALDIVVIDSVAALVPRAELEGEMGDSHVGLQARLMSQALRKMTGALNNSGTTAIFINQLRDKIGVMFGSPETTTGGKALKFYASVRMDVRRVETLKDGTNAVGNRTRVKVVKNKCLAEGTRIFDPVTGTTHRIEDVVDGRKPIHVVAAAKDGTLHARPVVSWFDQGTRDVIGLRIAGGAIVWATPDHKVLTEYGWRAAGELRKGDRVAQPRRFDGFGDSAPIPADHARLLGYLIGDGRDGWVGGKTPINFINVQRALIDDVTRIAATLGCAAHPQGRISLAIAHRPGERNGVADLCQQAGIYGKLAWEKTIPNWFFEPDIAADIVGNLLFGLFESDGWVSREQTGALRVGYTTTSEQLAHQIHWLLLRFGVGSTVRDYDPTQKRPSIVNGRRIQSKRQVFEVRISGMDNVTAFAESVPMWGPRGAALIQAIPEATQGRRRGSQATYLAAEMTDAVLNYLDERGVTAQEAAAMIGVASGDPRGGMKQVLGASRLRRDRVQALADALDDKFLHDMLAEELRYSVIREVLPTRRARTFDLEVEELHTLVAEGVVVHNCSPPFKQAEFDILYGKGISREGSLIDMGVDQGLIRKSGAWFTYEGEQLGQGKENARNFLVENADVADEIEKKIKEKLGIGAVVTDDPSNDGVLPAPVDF
YopH inh = blocks Yersinia enterocolitica YopH tyrosine phosphatase; fluorescence Ex485/Em525; inhibition, %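 (about 10 µM by stock and volumes)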; 140,000 compounds, 0.16% hits; AID 898;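 active = inhibition of 50% or more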;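 note: controls were vehicle for no effect and minimum signal wells for full effect; inactives centre near -20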
Mtb bLac sens = beta-lactam sensitization of Mtb H37Rv. M. tuberculosis H37Rv growth with meropenem, percent inhibition; hits of this screen are not shown here. 330,000 compounds, 0.27% hits. inhibition, % at 25 µM;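 active = about 74% or more and at least 40 points above the plate without the antibiotic, then above 30% in a dose series; inconclusive = first-round hits that could not be retested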;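 note: growth measured after seven days incubation then overnight dye step; 0% = bacteria only wells and 100% = bacteria with antibiotic; twin plates without the antibiotic show which effects depend on it; some results filed as inactive read as strong as hits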
Arbovirus inh repeat = second read-out of Arbovirus inh, no call of its own (marks repeat the call); inhibition, %; measured here: 10K subset replicate screen; many hits read low in the repeat;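 first of two repeat runs on a subset; 0% = infected and 100% = uninfected wells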
Starred values were filed as active, the others as inactive; u = inconclusive; x = no result given. The list is partial, so the mix of outcomes need not match the whole.

SMILES	Mtb growth	Arbovirus inh	RecA splice inh	YopH inh	Mtb bLac sens	others
O=C(COC(=O)c1ccccc1Nc1ccccc1F)c1ccccc1	6%	x	1.0	x	-6
CCOc1ccc(NC(=O)COc2ccc(C(=O)NC3CCCc4ccccc43)cc2OC)cc1 (stereo not given)	7%	-16	2.0	-23	-6
CCCCOC(=O)c1ccc(NC(=O)/C=C/c2cccs2)cc1	u	23	-4.4	-3	99
Cc1noc(C)c1C(=O)Nc1nc2ccc(Cl)cc2s1	x	x	1.7	x	80
COc1ccc(C(=O)C2CCCN(Cc3cnc(N4CCCC4)s3)C2)cc1OC (stereo not given)	6%	-5	3.0	x	8
Cc1cc(C)n2nc(SCC(=O)NC3CCCC(C)C3C)nc2n1 (stereo not given)	x	x	-1.4	x	-3
CC(=O)C1=C(O)C(=O)N(c2ccc(S(N)(=O)=O)cc2)C1c1ccccc1F (stereo not given)	-1%	-2	-2.6	-32	8
Cc1cc(N2CCN(C)CC2)nc2ccc(NC(=O)CCC(=O)N3CCN(c4ccc([N+](=O)[O-])cc4)CC3)cc12	x	x	1.4	x	2
CC1(C)Cc2cccc(OCC(=O)N3CCN(c4ccc(F)cc4)CC3)c2O1	x	x	0.5	x	-7
O=C(C[n+]1ccccc1)Nc1ccc(Oc2ccccc2)cc1	4%	5	x	x	-3
Cc1oc(-c2ccccc2)nc1CS(=O)CC(=O)NC1CCCCCC1 (stereo not given)	x	x	-7.2	x	-5
CCN(CC(=O)Nc1ccc(C(=O)Nc2ccc(OC)cc2)cc1)Cc1nc2ccccc2c(=O)[nH]1	-1%	x	-1.7	x	7
Cc1cccc(C(O)(C(=O)NNC(=O)CN2CCN(C)CC2)c2cccc(C)c2)c1	5%	5	0.8	-16	-1
COc1cc2c(C)nc(C)c(C#N)c2cc1OC	-2%	-5	1.2	-87	-3
CCCCc1ccc(NC(=O)Nc2cc(C)nn2C)cc1	x	x	-0.9	x	91
Cc1ccc(C)c(NC(=O)c2cc(S(=O)(=O)N3CCCCC3)c[nH]2)c1	x	x	1.5	x	-2
Cn1c(N)c(C(=O)CSc2nc3ccccc3c(=O)n2CCCN2CCOCC2)c(=O)n(C)c1=O	6%	2	-0.2	x	3
CCCC(=O)N(Cc1cc(=O)[nH]c2ccccc12)c1ccc(C)cc1	x	x	3.9	x	u
COc1ccc(C(=O)OCC(=O)Nc2cc(S(=O)(=O)N3CCOCC3)ccc2N2CCCC2)cc1	3%	11	3.2	x	-1
COc1ccc(Cl)cc1S(=O)(=O)N1CCCC(C(=O)NCc2ccccn2)C1 (stereo not given)	x	x	0.6	x	-7
Cc1nc(-c2cccc(C(F)(F)F)c2)sc1C(=O)O	-6%	5	-0.4	x	2
CC(Sc1nnnn1-c1ccccc1)C(=O)Nc1ccc(N2CCN(C)CC2)cc1 (stereo not given)	x	x	6.5	x	5
COc1ccc(NC(=O)CSc2nnc3ccc(-c4cccnc4)nn23)c(OC)c1	x	x	-0.8	x	-8
CC(=O)Nc1ccc(S(=O)(=O)Nc2ccc(N3CCOCC3)cc2)cc1	-5%	-6	2.5	-29	-11
COc1ccccc1C(=O)NC(=S)/C=C1/N(C)c2ccccc2C1(C)C	u	-4	-0.3	-17	97

(listing goes on)
SMILES	Mtb growth	Arbovirus inh	RecA splice inh	YopH inh	Mtb bLac sens	others
COc1ccc(N(C(=O)c2ccc(Br)o2)C2C=CS(=O)(=O)C2)cc1 (stereo not given)	-3%	5	-2.2	-18	-4
CCOC(=O)/C(C#N)=C/c1c(N2CCN(Cc3ccc4c(c3)OCO4)CC2)nc2c(C)cccn2c1=O	-1%	x	1.3	x	-10
Cc1nn(-c2ccccn2)c(N)c1N=O	0%	x	-8.0	x	-2
O=C(NCC(c1cccs1)N1CCOCC1)C1CCN(S(=O)(=O)c2cccc(C(F)(F)F)c2)CC1 (stereo not given)	x	x	2.0	x	-5
CCN(CC)c1ccc(NC(=O)CSc2nc3ccccc3c(=O)[nH]2)cc1	3%	-14	0.9	6	-11
N#CC1=C(SCC(=O)Nc2nccs2)NC(=O)CC1c1ccccc1 (stereo not given)	5%	-21	-2.2	2	-8
OCCC1CN(Cc2ccccc2-c2ccco2)CCN1Cc1ccccc1 (stereo not given)	0%	5	1.9	x	-2
COc1ccc(CCNC(=O)c2cc(S(=O)(=O)N(C)c3ccccc3)ccc2Cl)cc1	11%	7	8.5	-6	4
CCN(CC(=O)NCc1ccc(Cl)cc1)C(=O)c1oc2ccccc2c1C	x	x	0.0	x	-16
Cc1ccc(NCc2ccccc2O)c(C)c1	-1%	20	-1.2	x	0
CCOC(=O)CCN(c1ccccc1)S(=O)(=O)c1ccc(-c2ccc(=O)[nH]n2)s1	x	x	4.6	x	2
O=C1SC(SCc2ccccc2)=N/C1=C\c1ccco1	3%	-1	6.8	45	-7
NCC(c1ccc(Cl)cc1Cl)c1c[nH]c2ccccc12 (stereo not given)	x	x	3.0	x	u
Cc1nnc(SCC(=O)Nc2nccs2)s1	-5%	-1	-1.4	-12	u
COC(=O)CNc1cccc(C(F)(F)F)c1	-4%	6	-1.6	x	-2
CCN=C1SC(C(N)=O)CC(=O)N1CC (stereo not given)	-11%	5	0.4	-47	3
Cc1cc(C)cc(-n2nnnc2SCC(=O)Nc2nc(-c3ccc(F)cc3)cs2)c1	-8%	-1	-2.5	-34	5
COc1ccc(CCN(C)C2CCCN(S(=O)(=O)c3ccccc3F)C2)cc1OC (stereo not given)	x	x	0.1	x	-6
Cc1ccc2nc(C3CCN(CC(=O)N4CCCCCC4)CC3)[nH]c2c1	0%	2	-0.5	-24	-8
CN(CCc1cnn(C)c1)C(=O)C1CCC(=O)N(CC2CCCCC2)C1 (stereo not given)	x	x	46*	x	-4
CN(c1ccccc1)S(=O)(=O)c1ccc(C(=O)OCC(=O)NCc2ccco2)cc1	-2%	4	3.4	-10	-7
Cc1ccccc1-n1nc(C(=O)O)c(C)c(C#N)c1=O	u	-6	1.4	-21	-14	Arbovirus inh repeat=3
CCOc1cc(N2CCOCC2)c(OCC)cc1NC(=O)C(NC(=O)c1ccco1)C(C)C (stereo not given)	-6%	1	-1.4	-29	3
OC1(c2ccccc2F)CCN(Cc2nnc(-c3ccccc3)o2)CC1	-1%	5	9.3	-3	-5
NC1=NC(=O)C2(COC(c3ccncc3)OC2)S1 (stereo not given)	0%	14	-3.7	x	-6

Next compounds
SMILES	Mtb growth	Arbovirus inh	RecA splice inh	YopH inh	Mtb bLac sens	others
CCOc1cc(/C=C2/C(=N)N3C(=NC2=O)SN=C3S(=O)(=O)CC)ccc1OC(=O)c1ccco1	x	x	-8.3	x	5
N#CCC(=O)Nn1c(=S)[nH]c2ccccc2c1=O	-9%	7	-1.5	x	1
CN1CC2([N+](=O)[O-])CC=C(Cl)C([N+](=O)[O-])(C1)C2 (stereo not given)	9%	1	0.1	x	2
Cc1ccc2c(Cl)c(C)c(N3CCCC3)nc2n1	3%	2	0.2	-6	6
Cc1cccc(C(=O)Nc2nccs2)c1[N+](=O)[O-]	-7%	2	-2.2	1	-2
CC(NC(=O)C1CC1)c1ccc(-c2ccccc2)cc1 (stereo not given)	x	x	1.7	x	-6
Cc1cccc(Cn2c(-c3ccc[nH]c3=O)nc3ccccc32)c1	x	x	0.6	x	-5
CCCn1nc(C(=O)OCC(=O)c2ccc3c(c2)NC(=O)CO3)c2ccccc2c1=O	-6%	5	0.5	-5	-3
Clc1cccc(C2NCc3ccccc3-n3cccc32)c1 (stereo not given)	-2%	x	-0.1	x	-3
CCOC(=O)C1=C(C)Nc2ncnn2C1c1cc(Br)ccc1F (stereo not given)	-12%	-10	-1.9	-31	-20
O=C(NCCCN1CCCC1=O)c1ccc2c(c1)NC(=O)C(N1CCOCC1)S2 (stereo not given)	3%	1	-0.7	-35	x
Cc1cccc(C(=O)NC(=S)NNC(=O)COc2ccc(Cl)cc2)c1	u	-22	4.0	x	x
CCOP(=O)(OCC)C(NC(=O)Nc1ccc(Cl)cc1)C(N)=O (stereo not given)	-1%	5	-0.5	-21	-1
COc1ccccc1/C=N/NC(=O)Cn1cnc([N+](=O)[O-])n1	4%	4	0.4	x	7
CN(C)CCCN(C(=O)CCOc1ccccc1)c1nc2c(F)cccc2s1	-2%	0	1.4	x	x
Cc1cccc(-c2nnc(SCC(=O)Nc3cc(C)on3)n2C)c1	x	x	-2.7	x	-2
CCc1ccccc1NC(=O)CCS(=O)(=O)c1ccc2c(c1)CCCN2C(C)=O	x	x	-2.5	x	-5
Cc1ccc(C2(C)NC(=O)N(CC(=O)Nc3ccc4[nH]c(=O)[nH]c4c3)C2=O)cc1 (stereo not given)	4%	x	x	x	-1
CCOc1ccc(CN2CCN(Cc3nc4c(s3)CCCC4)CC2CCO)cc1 (stereo not given)	8%	-1	0.7	x	4
CCOc1cc2[nH]c(=O)n(CCc3ccc(OC)c(OC)c3)c(=O)c2cc1OCC	-3%	4	x	-26	1
COc1ccc(NC(=O)c2ccc3c(SCC(=O)O)c4c(nc3c2)CCCC4)cc1Cl	2%	3	12	x	3
Brc1cc2c(cc1Br)OCCOCCOCCOCCO2	-2%	6	-0.4	x	-5
CCOc1ccc(/C=N/NC(=O)c2cc(-c3ccccc3)nc3ccccc23)cc1O	x	x	-1.6	x	2
Cc1cccc(N2C(=O)CN(Cc3cccs3)C2=S)c1	-8%	-1	-2.3	x	-7
CC(O)Cn1nc([N+](=O)[O-])nc1N (stereo not given)	1%	18	-2.0	x	-11

Of the compounds above, three contain bromine:
SMILES	Mtb growth	Arbovirus inh	RecA splice inh	YopH inh	Mtb bLac sens	others
COc1ccc(N(C(=O)c2ccc(Br)o2)C2C=CS(=O)(=O)C2)cc1 (stereo not given)	-3%	5	-2.2	-18	-4
CCOC(=O)C1=C(C)Nc2ncnn2C1c1cc(Br)ccc1F (stereo not given)	-12%	-10	-1.9	-31	-20
Brc1cc2c(cc1Br)OCCOCCOCCOCCO2	-2%	6	-0.4	x	-5

More results.
SMILES	Mtb growth	Arbovirus inh	RecA splice inh	YopH inh	Mtb bLac sens	others
CC(OC(=O)CCc1nc2ccccc2c(=O)[nH]1)C(=O)c1ccc(Br)cc1 (stereo not given)	-4%	1	21	-11	-4
CSc1ccccc1NC(=O)CN(C)C(C)C(=O)NC(=O)NC1CCCCC1 (stereo not given)	x	x	1.7	x	47
c1ccc(Nc2cc(-c3ccccc3)nc3ncnn23)cc1	0%	-8	-0.8	-33	25
O=C(Cn1cc(F)c(=O)[nH]c1=O)NCCO	4%	1	-0.7	x	0
O=C(NCC1CCCN(C(=O)c2cccnc2)C1)c1ccc(-c2ccccc2)cc1 (stereo not given)	-7%	4	-0.5	x	6
COCCNC(=O)/C(C#N)=C/c1ccc(SC)cc1	1%	20	3.4	x	-2
O=C(CNC(=O)c1ccccc1)N/N=C/c1ccc([N+](=O)[O-])o1	50%	-15	58*	-38	100
CCOC(=O)c1cc2c(ccn2C)n1Cc1ccccc1C	2%	4	7.3	-42	7
O=C(Nc1cnccn1)c1cccc(C(F)(F)F)c1	-14%	2	1.0	-41	1
CC(C)C(=O)Nc1cccc(S(=O)(=O)c2cccc(NC(=O)C(C)C)c2)c1	1%	-3	-3.8	15	-14

Structures listed so far with a Cl atom:
SMILES	Mtb growth	Arbovirus inh	RecA splice inh	YopH inh	Mtb bLac sens	others
Cc1noc(C)c1C(=O)Nc1nc2ccc(Cl)cc2s1	x	x	1.7	x	80
COc1ccc(Cl)cc1S(=O)(=O)N1CCCC(C(=O)NCc2ccccn2)C1 (stereo not given)	x	x	0.6	x	-7
COc1ccc(CCNC(=O)c2cc(S(=O)(=O)N(C)c3ccccc3)ccc2Cl)cc1	11%	7	8.5	-6	4
CCN(CC(=O)NCc1ccc(Cl)cc1)C(=O)c1oc2ccccc2c1C	x	x	0.0	x	-16
NCC(c1ccc(Cl)cc1Cl)c1c[nH]c2ccccc12 (stereo not given)	x	x	3.0	x	u
CN1CC2([N+](=O)[O-])CC=C(Cl)C([N+](=O)[O-])(C1)C2 (stereo not given)	9%	1	0.1	x	2
Cc1ccc2c(Cl)c(C)c(N3CCCC3)nc2n1	3%	2	0.2	-6	6
Clc1cccc(C2NCc3ccccc3-n3cccc32)c1 (stereo not given)	-2%	x	-0.1	x	-3
Cc1cccc(C(=O)NC(=S)NNC(=O)COc2ccc(Cl)cc2)c1	u	-22	4.0	x	x
CCOP(=O)(OCC)C(NC(=O)Nc1ccc(Cl)cc1)C(N)=O (stereo not given)	-1%	5	-0.5	-21	-1
COc1ccc(NC(=O)c2ccc3c(SCC(=O)O)c4c(nc3c2)CCCC4)cc1Cl	2%	3	12	x	3
